# LASV entry inh – blocks Lassa virus binding to or entry into cells | 300,000 tested, 1.2% active | Lassa virus pseudotype entry inhibition, cell reporter; control for the full effect not named in the record | AID 540256 | Potency, µM (highest dose often 37.9 µM), without a hit: top-dose activity change, negative = inhibition, actives largely listed as inhibitors; active means well fitted inhibition curve with a large enough effect; inconclusive means small, poorly fitted or top-dose-only effect, or effect the other way; inactive means flat fitted curve, though single readings scatter; tested in HEK293 cells; also: % is scaled to controls: 0 for no effect and ±100 for the full control effect; nearly all actives have a fitted effect of over 50% in size; luciferase read-out
# NS1 function inh – blocks influenza NS1 protein function; S. cerevisiae slowed by influenza A NS1, growth recovery by OD600; Potency, µM (titrated, usually from 46.1 µM), inactives show at the highest dose activity, positive = more growth; 270,000 tested, 0.4% active; also: actives are rising curves; nearly all actives have a fitted effect of over 50% in size
#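 In this qHTS, NS1 from influenza A is expressed in budding yeast, where it slows growth. Cells are switched from glucose to 2% galactose medium (pH 6.0, -URA), treated with compound, and growth recovery is read at OD600.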
# StopGo reporter – lowers the luciferase signal of an FMDV 2A StopGo reporter; human cells with a luciferase reporter of 2A StopGo recoding; control for the full effect not named in the record; 410,000 tested, 1.2% active; AID 1159524; Potency, µM (top dose mostly 57.9 µM), for inactives: top-dose signal change, negative = less light; active = well fitted falling curve with a large enough effect; inconclusive = small, poorly fitted or top-dose-only effect; inactive = no such curve, though single readings can be large or run the other way; tested in HEK293T cells; also: % is scaled to controls: 0 for no effect and ±100 for the full control effect; nearly all actives have a fitted effect of over 45% in size; luciferase light after 4 h
# MARV entry inh – Marburg virus entry inhibition; Marburg virus pseudotyped entry inhibition, cell reporter; control for the full effect not named in the record; about a third of the inactives were read at about 46 µM; Potency, µM (series often up to 37.8 µM), for the others: top-dose activity change, negative = inhibition, most hits filed as inhibitors; 300,000 tested, 1.8% active; active = well fitted inhibition curve with a large enough effect; inconclusive = small, poorly fitted or top-dose-only effect, or effect the other way; inactive = flat fitted curve, though single readings scatter; tested in HEK293 cells; about a fifth of its hits are not listed in these tables; also: % is scaled to controls: 0 for no effect and ±100 for the full control effect; luciferase read-out
# RE007 growth inh – less growth of the S. pombe RE007 Vpr strain; S. pombe RE007 Vpr strain, BacTiter-Glo ATP luminescence, 24 h; control for the full effect not named in the record; Potency, µM (highest dose often 92.2 µM), for the others: top-dose activity change, negative = less growth; 360,000 tested, 0.21% active; AID 651644; active = well fitted falling curve with a large enough effect; inconclusive = small, poorly fitted or top-dose-only effect; inactive = no such curve, though single readings can be large or run the other way;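 also: % is scaled to controls: 0 for no effect and ±100 for the full control effect; nearly all actives have a fitted effect of over 50% in size; the assay follows cell death caused by Vpr and the record does not say whether a fall means rescue or toxicity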
#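 Fission yeast strain RE007, carrying one chromosomally integrated HIV-1 vpr copy, was seeded at OD 0.01 in PMG+AL medium with 23 nL pinned compound. After 24 h at 30 °C and 99% humidity, viability was read by BacTiter-Glo luminescence.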
# Cruzain inh noDet – blocks cruzain activity in detergent-free assay | purified cruzain, Z-FR-AMC fluorescence, no detergent | Potency, µM, for inactives: max response, negative = inhibition, hits mostly inhibitors | 200,000 tested, 2.3% active | AID 1476; active = well fitted curve in the direction sought with a large enough effect; inconclusive = small, poorly fitted or top-dose-only effect, or another doubt; inactive = no such curve, though single readings can be large; an effect the other way counts as inactive or inconclusive;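 also: plate controls were enzyme without inhibitor for no effect and buffer without enzyme for full effect; nearly all actives have a fitted effect of over 40% in size; top concentration of the series not given in the record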
# Target sequence (P25779 123-467 limits assumed): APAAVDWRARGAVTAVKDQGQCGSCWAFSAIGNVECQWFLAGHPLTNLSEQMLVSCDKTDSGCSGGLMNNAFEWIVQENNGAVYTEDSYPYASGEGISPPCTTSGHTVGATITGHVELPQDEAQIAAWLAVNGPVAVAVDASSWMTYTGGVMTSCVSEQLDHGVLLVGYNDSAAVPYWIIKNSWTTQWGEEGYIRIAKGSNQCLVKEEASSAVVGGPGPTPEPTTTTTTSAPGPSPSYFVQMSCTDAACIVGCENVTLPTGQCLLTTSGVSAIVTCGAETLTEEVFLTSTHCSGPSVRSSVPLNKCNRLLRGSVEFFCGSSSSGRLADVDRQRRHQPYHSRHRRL
#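 Detergent-free condition (0.00005% Triton X-100) in acetate buffer pH 5.5 with DTT. 1.5 nM enzyme and compound were pre-mixed 15 min, then 2 uM Z-FR-AMC substrate added; reaction progress from fluorescence change between first and third reads (60 s).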
# Cruzain Triton – inhibitors of Trypanosoma cruzi cruzain with detergent; P25779; purified cruzain, Z-FR-AMC fluorescence, 0.01% Triton; Potency, µM, for inactives: max response, negative = inhibition, hits mostly inhibitors; 200,000 tested, 0.43% active; AID 1478; active = well fitted curve in the direction sought with a large enough effect; inconclusive = small, poorly fitted or top-dose-only effect, or another doubt; inactive = no such curve, though single readings can be large; an effect the other way counts as inactive or inconclusive;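 also: plate controls were neutral wells for no effect and buffer without enzyme for full effect; nearly all actives have a fitted effect of over 40% in size; top concentration of the series not given in the record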
#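 Sodium acetate buffer (100 mM, pH 5.5) containing 5 mM DTT and 0.01% Triton X-100 hosted 1.5 nM cruzain and test compound for 15 min at room temperature. Cleavage of 2 uM Z-FR-AMC was then tracked by fluorescence.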
# SARS PLP yeast – inhibitors of SARS-CoV papain-like protease in yeast; Potency, µM (titrated, usually from 32.9 µM), for the others: at the top dose activity, positive = growth rescue; 330,000 tested, 0.19% active; AID 485353; S. cerevisiae expressing SARS-CoV PLpro, growth rescue; control for the full effect not named in the record; also: 0% is about no effect; nearly all actives have a fitted effect of over 55% in size; growth read by luminescence after 48 h
# Numbers without * were called inactive; ? = inconclusive; nt = no result given; [ ] = remark or other dose. Unless noted, calls follow the shape of the dose curve; as a rule, active means well fitted rising curve with a large enough effect; inconclusive means small, poorly fitted or top-dose-only effect; inactive means no such curve, though single readings can be large or run the other way. Potency is read from the fitted curve at half-maximal effect.
SMILES,LASV entry inh,NS1 function inh,StopGo reporter,MARV entry inh,RE007 growth inh,Cruzain inh noDet,Cruzain Triton,SARS PLP yeast
COc1ccc2nc(NC(=O)c3cccs3)sc2c1,?,-38%,-9%,6.3µM*,?,nt,nt,-4%
CCOC(=O)C1CCN(C(=O)c2ccc(Cl)c(Cl)c2)CC1,9%,-4%,-4%,?,34%,6%,-3.7%,3%
O=C(NCc1ccc2c(c1)OCO2)NC12CC3CC(CC(C3)C1)C2,?,nt,-9%,-18%,12%,nt,nt,-3%
CC(OC(=O)CCCCCN=C1NS(=O)(=O)c2ccccc21)C(=O)Nc1cc(Cl)cc(Cl)c1 (stereo not drawn),-14%,13µM*,-2%,14%,8%,12%,-1.7%,11%
CCc1ccc(S(=O)(=O)c2c[nH]c3cc(OC)c(OC)cc3c2=O)cc1,-28%[46.1 µM],nt,-26%,6%[46.1 µM],nt,17%,-2.4%,nt
COCCNC(=O)/C(C#N)=C/c1cc(C(C)C)c(OC)cc1C,-10%,nt,-23%,-26%[46.1 µM],-9%,nt,nt,3%
COc1ccc(OC)c(S(N)(=O)=O)c1,-25%[14.3 µM],-2%,10%,-20%,12%,2%,3.3%,2%
O=C(N/N=C\c1ccc(OC(=O)c2ccco2)cc1)c1ccc(Cl)cc1,nt,4%,33%[activator],nt,3%,nt,nt,-1%
CC(=O)c1cc2c(=O)c3cc(C)ccc3oc2nc1C,?,-60%,32%[activator],0%,-14%,2%,3.0%,11%
COc1ccc(OC)c(C(=O)c2ccccc2)c1,-7%,-12%,nt,-8%,-16%,0%,-4.8%,3%
COc1ccc(-c2ccc(NS(=O)(=O)c3cccc([N+](=O)[O-])c3)cc2)nn1,nt,15%,-5%,nt,2%,nt,nt,-4%
CCN(CC)S(=O)(=O)c1ccc(NC(=O)c2cnccn2)cc1,nt,9%,2%,nt,-3%,nt,nt,6%
COc1ccc(C(NC(=O)C(C)C)c2c(O)ccc3ccccc23)cc1 (stereo not drawn),nt,2%,-18%,nt,9%,nt,nt,0%
FC(F)(F)c1cnc(C(c2ccccn2)c2ncn[nH]2)c(Cl)c1 (stereo not drawn),?,nt,-10%,?,0%,nt,nt,1%
CCSc1nc2ccccc2c(=O)n1C1CCOC(C)(C)C1 (stereo not drawn),-9%[46.1 µM],nt,-7%,-2%[46.1 µM],25%,nt,nt,-7%
Cc1c(NC(=O)CCSc2ccc(Cl)cc2)c(=O)n(-c2ccccc2)n1C,-8%,-2%,-19%,-15%,-2%,4%,2.6%,-1%
CCc1ccc(C(C)NC(=O)C2(C)CC2(Br)Br)cc1 (stereo not drawn),?,-72%,-26%,-15%,-8%,-6%,1.4%,-3%
COC(=O)c1ccc(C(=O)OC)c(NC(=O)CN(c2ccc3c(c2)OCO3)S(C)(=O)=O)c1,-5%,3%,-8%,-28%,-11%,?,-4.2%,0%
Cc1cc(Br)ccc1NC(=O)CNC(=O)Cc1ccc(S(=O)(=O)N2CCOCC2)s1,0%,nt,-1%,?,1%,nt,nt,1%
Cc1nc2cc(NC(=O)Nc3ccc(N4CCOCC4)cc3)ccc2n1C,1%,5%,-3%,6%,-11%,-15%,-2.1%,-1%
Cc1ccc(NC(=O)CN2C(=O)NC3(CCCC3)C2=O)nc1,0%,nt,-8%,-2%[46.1 µM],-11%,nt,nt,3%
CCCc1nnc(NC(=O)CSc2nc3ccccc3[nH]2)s1,?,nt,-12%,?,3%,nt,nt,0%
CCOC(=O)c1c(C)nc2ccc(Cl)cc2c1-c1ccccc1,1%,-4%,-25%,?,-1%,22%,-5.9%,?
CCOC(=O)C(Cc1ccccc1)NC(=O)CNC(C)=O (stereo not drawn),12%,-2%,3%,4%,1%,1%,4.0%,3%
Cc1ccc(S(=O)(=O)N2CCC(C(=O)Nc3ccc(C)c(Cl)c3)CC2)cc1,23%[46.1 µM],nt,?,7%[46.1 µM],nt,13%,?,nt
SMILES,LASV entry inh,NS1 function inh,StopGo reporter,MARV entry inh,RE007 growth inh,Cruzain inh noDet,Cruzain Triton,SARS PLP yeast
COc1cccc(C(=O)N2N=C(c3ccccn3)CC2(O)C(F)(F)F)c1 (stereo not drawn),nt,-1%,-10%,nt,-10%,nt,nt,-2%
CCCC(=O)N1CCN(c2nc3ccccc3s2)CC1,nt,-13%,2%,nt,3%,nt,nt,12%
CCOC(=O)COc1ccc(C(=O)CC)cc1OC,nt,2%,13%,nt,9%,nt,nt,0%
CCN(C(C)=O)c1nc(CSc2nnc(NC(C)C)s2)cs1,-16%,-6%,-7%,7%,4%,5%,4.0%,7%
COCCCNC(=O)Cn1nc(-c2cccc(OC)c2)ccc1=O,nt,7%,-23%,nt,2%,nt,nt,0%
Cc1occc1C(=O)N(C)CC1CCCN(CCc2ccccc2F)C1 (stereo not drawn),nt,4%,-8%,nt,-5%,nt,nt,1%
COc1cc(OC)cc(-c2cc(NC(C)=O)n[nH]2)c1,1%,2%,8%,13%,-8%,4%,-0.6%,-5%
Cc1ccc(Nc2nc(-c3ccccc3)c(CC(=O)O)s2)cc1,2%,nt,33%[activator],-9%[46.1 µM],?,nt,nt,-2%
S=C(NCCc1ccccc1)NC1CCCCCC1,?,-36%,83%[activator],-12%,-29%,-8%,-0.2%,-31%
C=CCOC(=O)C1=C(C)N=C2SCCC(=O)N2C1c1cccs1 (stereo not drawn),-2%,-46%,-16%,0%,8%,7%,-2.8%,-10%
O=S1(=O)CCN(C(CO)c2ccccc2)CC1 (stereo not drawn),6%[46.1 µM],nt,-2%,-20%[46.1 µM],15%,nt,nt,3%
COc1ccccc1OC(C)C(=O)Nc1ccc2c(c1)OCCO2 (stereo not drawn),0%[46.1 µM],-9%,9%,11%[46.1 µM],-3%,nt,nt,0%
C=CCN1C(=O)C(Cc2ccc(SC(F)F)cc2)SC1=Nc1ccc(C(=O)O)cc1 (stereo not drawn),?,nt,-8%,-3%[46.1 µM],0%,nt,nt,1%
Cc1cccc(NC(=O)CSc2nc3n[nH]c(C)c3c(=N)n2-c2cccc(Cl)c2)c1,?,nt,-20%,nt,nt,?,-6.9%,nt
CCc1cc(=O)oc2c3c(cc(OCC(=O)NCCCn4ccnc4)c12)OC(C)(C)CC3,nt,1%,-10%,nt,-23%,nt,nt,-2%
O=C(CSc1ncn[nH]1)NCCOc1ccccc1,7%,5%,15%,8%,-5%,-9%,9.3%,-2%
Cc1ccc(C(C)(O)CS(=O)(=O)Cc2ccccc2Cl)cc1 (stereo not drawn),nt,-7%,-11%,nt,-9%,nt,nt,-3%
COc1ccc(NC(=O)C(NC(=O)CC2NC(=O)NC2=O)c2ccccc2)cc1 (stereo not drawn),15%,12%,6%,2%,1%,-14%,3.1%,16%
COc1ccccc1C(=O)N(NC(=O)Oc1ccccc1)C(C)(C)C,-1%,5%,-22%,10%,-18%,-7%,2.1%,-9%
O=C1c2ccccc2C(=O)N1OCCOCCOCCBr,1%,-1%,nt,4%,15%,-3%,2.7%,1%
CN(C)CCN(C(=O)c1ccc(S(=O)(=O)N(C)c2ccccc2)cc1)c1nc2cc3c(cc2s1)OCCO3,0%,7%,13%,-8%,?,nt,nt,0%
COc1ccc(OCCOC(=O)c2ccc(-n3cnnn3)cc2)cc1,4%,-59%,-17%,0%,-3%,0%,-2.9%,-1%
CC(C)CN1C(=O)CC(Sc2ccccc2C(=O)O)C1=O (stereo not drawn),24%,11%,-21%,?,0%,2%,-4.1%,-5%
Cc1ccccc1Oc1cc(-n2ncc(Cl)c(Cl)c2=O)ncn1,?,-61%,4.5µM*,?,?,-3%,-1.8%,-86%
CCOc1ccc(S(=O)(=O)N2CCOCC2)cc1NC(=O)CN1C(=O)NC(C)(c2ccccc2)C1=O (stereo not drawn),-2%,nt,-2%,?,-13%,nt,nt,2%

# Continued, overlapping the part above by four compounds.
SMILES,LASV entry inh,NS1 function inh,StopGo reporter,MARV entry inh,RE007 growth inh,Cruzain inh noDet,Cruzain Triton,SARS PLP yeast
COc1ccc(OCCOC(=O)c2ccc(-n3cnnn3)cc2)cc1,4%,-59%,-17%,0%,-3%,0%,-2.9%,-1%
CC(C)CN1C(=O)CC(Sc2ccccc2C(=O)O)C1=O (stereo not drawn),24%,11%,-21%,?,0%,2%,-4.1%,-5%
Cc1ccccc1Oc1cc(-n2ncc(Cl)c(Cl)c2=O)ncn1,?,-61%,4.5µM*,?,?,-3%,-1.8%,-86%
CCOc1ccc(S(=O)(=O)N2CCOCC2)cc1NC(=O)CN1C(=O)NC(C)(c2ccccc2)C1=O (stereo not drawn),-2%,nt,-2%,?,-13%,nt,nt,2%
Cc1nn(C)c(C)c1CN(C(=O)CCc1nnc(Cc2c[nH]c3ccccc23)o1)C(C)C,15%[46.1 µM],-1%,-12%,?,7%,nt,nt,1%
O=C(c1ccc(OC2CCN(Cc3ccc(F)cc3)CC2)cc1)N1CCCC1,nt,?,-21%,nt,6%,nt,nt,3%
Cc1ccc(/C=N/NC(=O)c2ccc(NC(=O)c3ccc(Cl)cc3)cc2)o1,26%,-8%,7%,28%[46.1 µM],2%,nt,nt,-1%
Cc1cccc(NC(=S)N/N=C(\c2ccccc2)C(C)C)c1,?,-6%,52%[activator],-19%[46.1 µM],6%,nt,nt,0%
O=C(Oc1ccccc1)c1ccccc1,-38%[46.1 µM],nt,-13%,8%[46.1 µM],-3%,nt,nt,nt
O=C(COc1ccccc1)Nc1nnc(SCc2cc(=O)n3cc(Cl)ccc3n2)s1,0%[46.1 µM],nt,-4%,nt,nt,1%,1.8%,nt
O=C(COc1ccc(S(=O)(=O)N2CCOCC2)cc1)NCCN1CCOCC1,6%,2%,20%,-2%[46.1 µM],16%,nt,nt,4%
COc1ccc(/C=N/NC(=O)c2ccc(Cn3cc([N+](=O)[O-])cn3)o2)c(OC)c1C,0%,12%,-9%,-4%,-8%,-12%,3.7%,6%

# Screens: PubChem, National Center for Advancing Translational Sciences (NCATS)
